D2 PAM = positive allosteric modulators of human D2 dopamine receptor; P14416; DiscoveRx D2 beta-arrestin cells, luminescence, 90 min; 100% = 57 uM dopamine signal; potentiation, % (no concentration beside the values); hit rate 0.23% among 360,000; active = potentiation of 50% or more; inconclusive = 30% to 50%; inactive = 30% or less;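 also: compound concentration not given in the record; tested on top of an EC20 dose of dopamine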
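D2 cells co-treated with compound plus 50 nM dopamine (EC20) for 90 min at 37 deg C to detect potentiation. Beta-arrestin recruitment was read as enzyme-fragment luminescence after 1 h at ambient temperature. Full response was set by 57 uM dopamine.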
TRPML1 ag = activates the human TRPML1 channel; Q9GZU1; TRPML1-expressing cells, Ca2+ dye fluorescence, FDSS; host cell line not named in the record; reference of the full effect not given here; activation, % (test concentration not listed); hit rate 0.12% among 410,000; AID 624414; in the data active = activation above about 50%; inconclusive = about 30% to 50%; inactive = below about 30%; also: 0% is about no effect; the text of the record puts the active cut at 80%
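TRPML1-DL cells, Tet-induced overnight (~16 h, 37 degrees C), loaded 45-90 min at room temperature with Ca8 no-wash calcium dye plus quencher. FDSS fluorescence: 10 s baseline, compound pin-transfer, 110 s agonist read, then EC80 54-4 (4uM final) and 110 s antagonist read.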
TRPML1 inh = inhibitors of human TRPML1 channel; AID 624415; activity change, negative = inhibition, % (test concentration not listed); hit rate 0.02% among 390,000; TRPML1-inducible cells, Ca2+ dye fluorescence, FDSS; stronger effect = lower value; inhibition of EC80 agonist-evoked calcium signal; Q9GZU1; in the data active means activity change below about -50%; inconclusive means about -30% to -50%; inactive means above about -30%;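 also: stimulus is agonist 54-4 at its EC80 concentration; % is scaled to controls: 0 for no effect and ±100 for the full control effect; compound concentration not given in the record; the text of the record puts the active cut at -80%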
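TRPML1-DL cells, Tet-induced overnight (~16 h, 37 °C) at 1,500 cells/well, were loaded with Ca8 no-wash dye plus quencher for 45-90 min at room temperature. Compounds were pinned during FDSS kinetic reading; agonist 54-4 at EC80 (4 uM final) then added.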
PINK1 expr mod = PINK1 expression modulation; AID 624263; Potency, µM (doses to about 76.6 µM), inactives show at the top dose activation (PINK1 increase), actives largely listed as activators; PINK1 immunofluorescence, high-content cytometry, 24 h; hit rate 0.2% among 410,000; active = well fitted activation curve with a large enough effect; inconclusive = small, poorly fitted or top-dose-only effect; inactive = flat fitted curve, though single readings scatter; cell line not stated here;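 also: potency is read from the fitted curve at half-maximal effect; % of control where 0% means no effect; nearly all actives have a fitted effect of over 65% in size; a mitochondrial uncoupler was the plate control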
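PINK1 protein, normally rapidly degraded, was detected by immunofluorescence after 24 hour compound treatment of a stable cell line. Titration data (5 concentrations) came from laser-scanning cytometry, with CCCP-treated wells as controls.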
Six1-Eya2 blk = inhibitors of human Six1/Eya2 interaction; AID 651725; activity change, % (no concentration beside the values); Q15475+O00167; hit rate 0.56% among 360,000; AlphaScreen GST-Six1/His-Eya2 binding, biochemical; stronger effect = lower value; control for the full effect not named in the record; in the data active = activity change below about -65%; inconclusive = about -30% to -65%; inactive = above about -30%; also: % is scaled to controls: 0 for no effect and ±100 for the full control effect; compound concentration not given in the record
Target sequence (O00167 whole entry, looked up): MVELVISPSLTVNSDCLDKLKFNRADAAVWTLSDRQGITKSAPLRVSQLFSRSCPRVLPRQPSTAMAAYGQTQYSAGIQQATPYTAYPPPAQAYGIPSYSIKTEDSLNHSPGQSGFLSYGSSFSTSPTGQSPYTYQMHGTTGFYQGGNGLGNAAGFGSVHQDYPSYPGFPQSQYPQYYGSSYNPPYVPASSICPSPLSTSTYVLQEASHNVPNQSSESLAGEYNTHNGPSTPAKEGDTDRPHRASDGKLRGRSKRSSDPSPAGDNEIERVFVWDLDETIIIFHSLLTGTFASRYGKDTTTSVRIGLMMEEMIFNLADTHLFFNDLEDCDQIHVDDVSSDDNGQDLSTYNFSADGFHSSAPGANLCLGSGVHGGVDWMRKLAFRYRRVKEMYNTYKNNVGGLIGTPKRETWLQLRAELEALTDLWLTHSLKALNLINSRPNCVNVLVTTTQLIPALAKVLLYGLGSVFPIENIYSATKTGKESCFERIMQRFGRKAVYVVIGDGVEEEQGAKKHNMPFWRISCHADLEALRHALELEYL
Target sequence (Q15475 whole entry, looked up): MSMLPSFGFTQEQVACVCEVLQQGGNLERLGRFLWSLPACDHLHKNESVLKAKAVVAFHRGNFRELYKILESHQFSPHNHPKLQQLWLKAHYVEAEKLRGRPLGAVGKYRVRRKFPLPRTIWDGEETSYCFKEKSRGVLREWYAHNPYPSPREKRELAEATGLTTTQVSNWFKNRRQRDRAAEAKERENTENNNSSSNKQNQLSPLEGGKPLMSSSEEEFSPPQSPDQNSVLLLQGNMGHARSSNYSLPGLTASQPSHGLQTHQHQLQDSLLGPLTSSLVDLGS
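Homogeneous AlphaScreen proximity assay pairing GST-Six1 with His-tagged Eya2 (added as 5X mix: 250 nM and 500 nM) in 50 mM Tris pH 8.0, 300 mM NaCl, 1 mM TCEP. Glutathione donor and nickel acceptor beads; 1 h, 37 °C, dark.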
D2 agonist = agonists of human D2 dopamine receptor (beta-arrestin); P14416; DiscoveRx PathHunter D2 beta-arrestin, luminescence, 90 min; 100% = 57 uM dopamine signal; activation, % (test concentration not listed); hit rate 0.084% among 360,000; in the data active = activation above about 40%; inconclusive = about 15% to 40%; inactive = below about 15%; also: compound concentration not given in the record; the text of the record calls up to 30% inactive
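Agonist mode: compounds alone added to overnight-plated D2 PathHunter cells for 90 min at 37 C, with 57 uM final dopamine (EC100) defining full response. Beta-arrestin recruitment detected by chemiluminescent reagent, read after 1 h at ambient temperature.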
The depositor's hits bear a star; ? = inconclusive; nt = not tested or not shown; [ ] = remark or other dose.

SMILES,D2 agonist,Six1-Eya2 blk,PINK1 expr mod,TRPML1 inh,D2 PAM,TRPML1 ag
CCN(CC)S(=O)(=O)N1CCC(C(=O)NCc2ccc3c(c2)OCO3)CC1,-4.4,1,2.7%,15,13,0.1
Cc1nnc(C)n1/N=C/c1ccccc1,0.7,3,5.9%[38.3 µM],2,-10,0.0
CCC(Sc1nc2ccsc2c(=O)n1Cc1ccc(C(=O)O)cc1)C(=O)Nc1ccc(C)c(Cl)c1 (stereo unspecified),-1.8,-1,3.0%,5,-1,-0.6
Cc1ccc(-c2cc(C(=O)N3CCOCC3)c3ccccc3n2)o1,-1.3,-6,-0.7%,16,-6,-0.4
COc1cccc(-n2c(SCc3c(C)noc3C)nnc2-c2cccc(S(=O)(=O)N(C)C)c2)c1,0.0,4,-0.6%,8,-8,1.8
COc1ccc(CC(=O)OCC(=O)N2CCCc3ccccc32)cc1OC,-5.4,-2,-1.7%,-1,-30,1.5
O=S(=O)(NCCc1ccccc1)c1ccc(Cl)nc1,3.8,45,2.1%,-11,1,-1.1
O=C(COC(=O)c1cc(S(=O)(=O)N2CCOCC2)ccc1Cl)Nc1ccc(Cl)cn1,-1.2,-1,0.0%,-1,-6,0.7
O=C(COc1ccccc1F)Nc1ccc2c(c1)OCCO2,0.1,2,-0.1%,3,-2,0.1
CCCCCCC(C)n1cc(C(C)=O)c(=O)n(C)c1=O (stereo unspecified),-1.1,-2,4.6%,-13,0,0.3
Cn1c(SCC(=O)NCc2cccs2)nnc1-c1ccncc1,-2.9,3,-2.4%,-14,-3,0.0
O=C(NCc1cccc(Cl)c1)c1ccc2c(c1)SC1=NS(=O)(=O)CCN12,-3.4,-12,-1.0%,0,-11,0.1
Cc1ccc(C)n1-c1ccncc1,-1.6,0,1.1%,15,-8,-0.5
COc1ccc(Cl)cc1-c1cc(C(=O)NCc2ccco2)[nH]n1,-6.0,?,1.2%,17,-19,-0.7
COc1ccccc1NC(=O)C1CCN(S(=O)(=O)c2ccc3c(c2)oc(=O)n3C)CC1,nt,nt,0.3%,-10,nt,-0.3
CCC(C)Nc1nc(-c2cccc(OC)c2O)nc2ccccc12 (stereo unspecified),2.0,-25,?,1,?,-1.0
Cc1ccc(C)c(CSC2=NCCN2C(=O)c2cccs2)c1,-6.8,8,1.7%,45,-27,-0.1
COCCN(C(=O)c1ccccc1)c1nnc(-c2cccnc2)s1,-2.9,-3,-0.5%,9,-1,-1.2
CC12CCC(=O)N1C(C(=O)NCCc1ccccc1)CS2 (stereo unspecified),-3.0,1,-0.3%,-15,-8,-0.3
COc1ccc(-c2nc3sc(CCNC(=O)c4ccccc4C)c(C)n3n2)cc1,nt,nt,0.5%,-21,nt,-0.9
COc1cccc(CNC(=O)c2nnn(CC(=O)Nc3ccc(Br)cc3)c2N)c1,2.8,1,3.2%,20,-11,0.6
CC(C)CN(CC(C)C)S(=O)(=O)N1CCC(C(=O)NCc2ccccn2)CC1,-3.3,-2,nt,-19,-2,-0.2
COC(=O)c1cc(=O)n(Cc2ccc3c(c2)OCO3)c(=Nc2ccc(F)c(Cl)c2)s1,3.2,5,0.1%,5,-3,0.2
COc1ccccc1CCn1cnc(-c2ccc(OC)c(OC)c2)c1C(C)C,nt,-14,3.2%,nt,nt,-0.3
COc1ccc(NC(=O)CN2CCCN(S(=O)(=O)c3ccc(Br)cc3)CC2)c(OC)c1,nt,nt,0.7%,22,nt,-0.1
O=C(OCc1nnc(-c2ccccc2)o1)C12CC3CC(CC(Br)(C3)C1)C2,-5.5,10,3.5%,48,-20,2.3
COC(=O)[C@@H](NC(=O)c1ccccc1)[C@@H](C)O,-2.7,7,0.9%,28,0,-0.4
O=C(CN1CCN(Cc2ccc(Cl)cc2)CC1)N/N=C/c1cccc(F)c1,1.2,-1,0.1%,9,-13,0.6
Cc1cccc(C(=O)N2CCCC(N3CCN(c4cccc(Cl)c4)CC3)C2)n1 (stereo unspecified),1.1,-3,1.7%,-6,-20,0.6
CC(O)CN(C)CC/C=C1/c2ccccc2CSc2ccccc21 (stereo unspecified),-5.4,5,-0.2%,-1,-25,-0.4
COc1ccc(CN2CCNC(=O)C2CC(=O)N(C)Cc2cc(C)no2)cc1OC (stereo unspecified),-4.9,-2,?,-12,-6,1.2
O=C(O)CCn1cc(/C=C2\NC(=S)N(c3ccccc3)C2=O)c(-c2ccc(Br)cc2)n1,-5.0,-7,-1.4%,6,-10,1.2
O=C(CC(C(=O)O)c1ccc(F)cc1)c1ccc(Cl)cc1 (stereo unspecified),-1.3,9,1.3%,1,-1,-0.2
CC[C@@H]1C(c2cccc(C)c2)=NN(c2ccccc2)[C@H]1C(=O)N1CCOC1=O,-1.6,21,3.1%,28,-7,4.0
Cc1cccc(NC(=O)C2C3CCCCC32)c1 (stereo unspecified),1.7,8,-0.5%,16,-3,-0.6
CC(c1ccccc1)N1C(=O)c2ccccc2C1(O)Cc1ccccc1 (stereo unspecified),-2.4,-12,-0.5%,-6,-3,0.1
Cc1ccc(C(=O)NC2CCCCCC2)cc1S(=O)(=O)N1CCOCC1,-2.1,9,-1.0%,-11,-7,0.0
C/C(=N\NC(=O)c1c[nH]c2ccccc12)c1ccco1,1.4,?,5.1%[38.3 µM],0,14,-0.3
COc1cc(Cl)c(NC(=O)c2cc3ccccn3n2)c(OC)c1,nt,nt,2.7%,6,nt,-0.9
Cc1ccc(C(c2c(O)cc(C)n(Cc3ccco3)c2=O)N2CCC(C)CC2)cc1 (stereo unspecified),nt,nt,0.5%,5,nt,0.3

A draw from above in order of count of non-hydrogen atoms, rising.
SMILES,D2 agonist,Six1-Eya2 blk,PINK1 expr mod,TRPML1 inh,D2 PAM,TRPML1 ag
O=C(CC(C(=O)O)c1ccc(F)cc1)c1ccc(Cl)cc1 (stereo unspecified),-1.3,9,1.3%,1,-1,-0.2
CC[C@@H]1C(c2cccc(C)c2)=NN(c2ccccc2)[C@H]1C(=O)N1CCOC1=O,-1.6,21,3.1%,28,-7,4.0
COc1ccc(CN2CCNC(=O)C2CC(=O)N(C)Cc2cc(C)no2)cc1OC (stereo unspecified),-4.9,-2,?,-12,-6,1.2

Further records.
SMILES,D2 agonist,Six1-Eya2 blk,PINK1 expr mod,TRPML1 inh,D2 PAM,TRPML1 ag
CCN(Cc1ccc(OC)c(F)c1)C(=O)CCl,-0.3,9,-0.4%,-14,-5,-0.6
O=[N+]([O-])c1c(Nc2ccccn2)cc(Cl)c2nonc12,2.2,0,-0.6%,-8,-21,1.8
CC(C)c1nc2ccccc2n1CC(O)COC1CCCCC1 (stereo unspecified),-0.8,17,-0.4%,40,-3,1.5
Cc1ccc(NC(=O)C(C)OC(=O)Cc2c[nH]c3ccccc23)cc1 (stereo unspecified),1.0,-9,-0.8%,4,-5,2.5
CC(C)OCCCNC(=O)C1CCN(S(=O)(=O)c2ccc3nc4c(c(C(=O)O)c3c2)CCCCC4)CC1,-2.5,0,2.4%,-4,1,-0.5
CCOCCCNS(=O)(=O)c1ccc(NC(=O)Cc2c(F)cccc2Cl)cc1,-1.3,0,-0.3%,22,-5,-0.7
CCOC(=O)C1=C(C)N(C[C@@H]2CC[C@@H](Cc3ccc(-c4ccccc4)cc3)O2)C(=O)NC1C1CC1 (stereo partly specified),-0.2,-11,-0.4%,-7,nt,0.0
Cc1ccc(NC(=O)c2sc(C)nc2C)c(C)c1,-2.5,-2,0.2%,-18,-4,1.2
Cc1ccc(S(=O)(=O)NCC(=O)NCC2COc3ccccc3O2)cc1C (stereo unspecified),-4.1,2,0.5%,-2,-3,0.7
Cc1cc(NC2CCCC2)n2ncc(-c3ccccc3)c2n1,5.3,35,6.0%,8,-6,1.9
CCOc1ccccc1NC(=O)C(NCCc1ccc(OC)cc1)c1ccccc1 (stereo unspecified),-0.6,3,-0.6%,28,-6,2.0
Cc1ccccc1NC(=O)C(=O)NCc1ccccn1,2.0,0,3.1%[38.3 µM],3,0,2.8
COc1ccc(CNC(=O)C2=CC(c3cccc(OC)c3)=NS(=O)(=O)N2C)cc1,nt,nt,-0.5%,-3,nt,1.7
COc1ccc(NC(=O)CSc2nc3[nH]ncc3c(=O)[nH]2)cc1OC,-8.7,-6,2.7%,1,-31,-0.1
C/C(=N\NC(=O)C(C)Sc1ccccc1)c1ccc([N+](=O)[O-])cc1 (stereo unspecified),3.4,-5,0.0%,17,-7,7.9
CCOC(=O)c1cc2[nH]c3ccccc3c2[n+](-c2ccc([N+](=O)[O-])cc2)c1N,0.3,-12,-0.3%,-3,14,0.3
O=C(Nc1cccnc1)c1ccc(Cl)c(S(=O)(=O)N2CCCCCC2)c1,-1.2,-2,?,23,-17,0.3
CCN1CC(CNC(=O)c2ccc3nc(Cc4cccc(Cl)c4)oc3c2)CC1=O (stereo unspecified),5.2,2,0.7%,-4,-5,0.9
CCC(=O)N1c2ccc(S(=O)(=O)CCC(=O)NC3CCCC3)cc2CC1C (stereo unspecified),-1.3,3,0.1%,-1,3,0.0
CCN1c2ccccc2-c2nc(SCC(=O)NCc3ccc(C)cc3)ncc2S1(=O)=O,nt,nt,2.7%,14,nt,1.1
NS(=O)(=O)c1ccc(CCNC(=O)CSc2ccccc2)cc1,-5.9,-9,-1.5%,-15,0,-0.7
CC(=O)NC1(C(Cl)(Cl)Cl)Oc2ccccc2O1,-2.4,-3,-2.4%,30,1,0.4
O=C(O)CCCC(=O)N1CCN(c2cccc(Cl)c2)CC1,-2.0,10,3.0%,-9,-2,-0.5
CCN(C(=O)CSc1nnnn1-c1ccccc1)c1c(N)n(Cc2ccccc2)c(=O)[nH]c1=O,-3.2,-1,-0.7%,-2,-10,-0.6
COc1ccc(S(=O)(=O)N(CC(=O)NCCc2ccccc2)c2ccc(Cl)cc2)cc1,nt,nt,13%,54,nt,1.9
Cc1cc(C(=O)N2CCC(Cc3ccccc3)CC2)ccc1[N+](=O)[O-],-0.7,-13,-2.9%[38.3 µM],18,-11,2.7

High-throughput results: PubChem BioAssay, National Center for Advancing Translational Sciences (NCATS)
